aGlu spleen mod = inhibitors or activators of human alpha-glucosidase in spleen homogenate | P10253 | human spleen homogenate, 4-MU-alpha-glucoside fluorescence | Potency, µM (doses to about 79.9 µM), inactives show at the top dose activity change, negative = inhibition, hits mostly inhibitors | actives 0.006% (n = 240,000) | AID 2112;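 note: 0% = enzyme with vehicle and -100% = no enzyme basal signal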
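Compounds were titrated against alpha-glucosidase in spleen homogenate at pH 5.0, with 1 mM 4-methylumbelliferyl substrate for 40 min at 37 C. Reactions were quenched with pH 10 NaOH/glycine and fluorescence measured.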
Epigenetic derep = epigenetic control regulation, reporter derepression; murine LDR cells, GFP reporter derepression, 30 h; Potency, µM (top dose mostly 53.9 µM), without a hit: at the highest dose GFP activation, most hits filed as activators; actives 0.2% (n = 280,000); note: % of control where 0% means no effect; nearly all actives have a fitted effect of over 60% in size
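Derepression of a silenced CMV-GFP reporter in murine LDR cells is scored by enumerating GFP-positive cells with a laser-scanning microplate cytometer after 30 hours of treatment at 37 C.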
GAA glycogen = inhibitors or activators of human alpha-glucosidase glycogen cleavage | P10253 | recombinant GAA, glycogen substrate, Amplex Red glucose oxidase fluorescence | actives 0.38% (n = 300,000) | Potency, µM (series often up to 76.4 µM), for inactives: top-dose activity change, negative = inhibition, usual class: inhibitors;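 note: 0% = full enzyme reaction and -100% = no-enzyme basal signal; the screen sought inhibitors and activators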
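qHTS, 1536-well; enzyme 4 nM final; cpd up to 77 uM; substrate bovine liver glycogen 30 ug; 50 mM citrate/phosphate pH 5.0, 0.01% Tween-20; 37 C, 40 min; Amplex Red detection 45 min RT; Hill fit → AC50.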
GAA inhib = alpha-glucosidase (human) inhibition | AID 1466 | P10253 | purified human GAA, 4-MU-alpha-glucoside fluorescence | actives 0.005% (n = 200,000) | Potency, µM (highest dose often 76.9 µM), without a hit: at the highest dose activity change, negative = inhibition, most hits filed as inhibitors;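 note: plate controls were uninhibited enzyme wells for no effect and no-enzyme background for full effect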
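Endpoint fluorogenic read: 20 min room-temperature reaction of 4 nM human alpha-glucosidase with 400 uM 4-methylumbelliferyl-alpha-D-pyranoside, pH 5.0, quenched with 1M NaOH/1M glycine pH 10. AC50 from Hill modeling.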
GLA spleen mod = alpha-galactosidase A (human) modulation. P06280. human spleen homogenate, 4MU-alpha-Gal fluorescence, 40 min. Potency, µM (titrated, usually from 80 µM), without a hit: at the top dose activity change, negative = inhibition, actives largely listed as inhibitors. actives 0.008% (n = 240,000). AID 2107;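 note: 0% = enzyme with vehicle and -100% = no enzyme basal signal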
Target sequence (P06280 32-429 limits assumed): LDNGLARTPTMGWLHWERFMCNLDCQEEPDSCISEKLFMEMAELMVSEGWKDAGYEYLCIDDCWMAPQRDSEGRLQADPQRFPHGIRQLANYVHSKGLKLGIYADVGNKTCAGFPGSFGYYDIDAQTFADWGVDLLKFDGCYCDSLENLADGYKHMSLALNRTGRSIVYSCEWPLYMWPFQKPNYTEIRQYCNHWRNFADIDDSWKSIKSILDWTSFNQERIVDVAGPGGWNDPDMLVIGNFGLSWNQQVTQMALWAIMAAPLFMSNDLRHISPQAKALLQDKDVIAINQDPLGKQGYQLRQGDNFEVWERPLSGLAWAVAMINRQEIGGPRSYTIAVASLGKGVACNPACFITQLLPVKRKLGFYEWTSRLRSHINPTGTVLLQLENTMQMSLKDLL
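Fluorogenic readout (Ex 365/Em 440 nm) of 4-methylumbelliferone released from 1 mM 4-MU-alpha-galactoside by spleen homogenate, 40 min at 37C, pH 5.0. Data normalized to no-enzyme and enzyme controls; Hill-equation AC50 from compound titrations.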
ALDH1A1 inh = blocks purified human ALDH1A1 activity; Purified ALDH1A1, NADH fluorescence, propionaldehyde substrate; Potency, µM (top dose mostly 75.3 µM), for the others: at the highest dose activity, negative = inhibition, hits mostly inhibitors; actives 7.3% (n = 220,000); AID 1030; active = well fitted inhibition curve with a large enough effect, not every such curve was filed as active; inconclusive = small, poorly fitted or top-dose-only effect, or another doubt; inactive = no such curve, though single readings can be large or run the other way;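 note: plate controls were no enzyme wells and a reference inhibitor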
Target sequence (P00352 whole entry, looked up): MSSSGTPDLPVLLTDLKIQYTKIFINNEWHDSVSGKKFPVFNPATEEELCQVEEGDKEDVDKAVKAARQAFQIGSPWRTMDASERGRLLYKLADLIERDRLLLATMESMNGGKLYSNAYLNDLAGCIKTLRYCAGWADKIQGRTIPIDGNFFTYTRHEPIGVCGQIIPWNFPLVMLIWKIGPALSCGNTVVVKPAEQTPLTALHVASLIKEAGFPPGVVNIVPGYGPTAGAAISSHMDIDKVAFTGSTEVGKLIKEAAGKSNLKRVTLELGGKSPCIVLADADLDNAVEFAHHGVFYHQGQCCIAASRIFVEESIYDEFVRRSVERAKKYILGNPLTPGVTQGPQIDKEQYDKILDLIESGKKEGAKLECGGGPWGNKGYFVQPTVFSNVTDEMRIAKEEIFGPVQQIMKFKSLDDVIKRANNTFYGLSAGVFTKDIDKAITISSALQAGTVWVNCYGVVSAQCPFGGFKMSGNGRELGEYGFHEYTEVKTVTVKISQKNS
Tau fluor counter = counter-screen for tau fibril formation inhibitors | tau K18 P301L Alexa594 fluorescence, heparin fibrillization | Potency, µM (titrated, usually from 57.7 µM), for inactives: top-dose activity change, negative = decrease | actives 0.93% (n = 280,000); note: % is set by controls: 0 for no effect and ±100 for the full control effect; nearly all actives have a fitted effect of over 55% in size
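Human tau K18 P301L (15 uM unlabeled, 0.24 uM Alexa 594-labeled) in 100 mM sodium acetate pH 7 with 20 uM heparin, 6 hr at 37 C. ThT 30 uM added, 1 hr ambient; Alexa 594 FP and total fluorescence read at 555/632 nm.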
Active calls of the source: *; ? = inconclusive; · = no result given. Unless noted, calls come from the whole dose curve; as a rule, active = well fitted curve in the direction sought with a large enough effect; inconclusive = small, poorly fitted or top-dose-only effect, or another doubt; inactive = no such curve, though single readings can be large; an effect the other way counts as inactive or inconclusive. Potency is the fitted concentration of half-maximal effect.

SMILES	aGlu spleen mod	Epigenetic derep	GAA glycogen	GAA inhib	GLA spleen mod	ALDH1A1 inh	Tau fluor counter
Cc1ccc2oc(=O)c3cnn(CC(=O)NC4CCN(Cc5ccccc5)CC4)c3c2c1	-3%	-1.4%	-1%	-6%	0%	8%	-11%
N#Cc1c(C(F)(F)F)cc(-c2ccc(Cl)c(Cl)c2)nc1SCCN1CCOCC1	-5%	-0.9%	-12%	4%	5%	2%	-16%
CCC(C)(C)n1nnnc1C(c1ccccc1)N1CCc2ccccc2C1 (stereo unspecified)	1%	-2.9%	6%	4%	-1%	10%	-6%
CCN(CC)S(=O)(=O)c1ccc2oc(C(=O)NCc3ccc(C)cc3)c(C)c2c1	-5%	0.0%	?	-3%	-10%	-7%	-22%
Cc1sc2nc(SCC(=O)C(C)(C)C)n(Cc3ccco3)c(=O)c2c1C	-9%	-0.9%	-10%	-6%	-18%	?	-9%
O=C1C2C(c3ccccc3)CC=CC2[C@H](c2ccc3ccccc3c2)N1Cc1ccccc1 (stereo partly specified)	-3%	0.5%	6%	·	-7%	·	-11%
COc1cccc(N/C(SCc2cccc([N+](=O)[O-])c2)=C(/C#N)C(N)=O)c1	-2%	12%	-6%	?	-10%	-5%	?
COC(=O)c1cc2ccsc2n1Cc1cc(=O)n2ccccc2n1	-6%	-1.7%	13%	-5%	-3%	?	4%
Cc1ccc(-c2nnc(SCC(=O)Nc3nc4c(s3)CCCC4)n2C)cc1	-1%	-1.3%	5%	?	-2%	7%	-4%
CN(C)S(=O)(=O)c1ccc(C(=O)Nc2nc(-c3ccccc3)c(C(=O)c3ccccc3)s2)cc1	-8%	-1.5%	8%	-10%	-21%	15%	-20%
Cc1sc2c(=O)n3c(nc2c1C(=O)NC1CCCCC1)CCCCC3	-7%	-1.0%	2%	?	-8%	?	-9%
CCOC(=O)c1c(NC(=O)CSc2nnc3c(n2)[nH]c2ccc(F)cc23)sc(C(C)=O)c1C	-6%	1.0%	7%	3%	5%	15%	-14%
O=C(NC1CCCCCC1)c1cc(S(=O)(=O)N2CCOCC2)ccc1N1CCCCC1	-20%	-1.6%	1%	-5%	-1%	-12%	-3%
O=C(Nc1ccc(Oc2ccccc2)cc1)C1CCN(c2ncccn2)CC1	-17%	-1.0%	4%	-2%	-2%	7%	2%
CCC(C)n1cnc2c(c1=O)c1nc3ccccc3nc1n2Cc1ccccc1OC (stereo unspecified)	5%	-0.7%	2%	0%	4%	?	3%
CCCCSc1nc(N)c(C#N)c(-c2cccs2)c1C#N	-13%	0.0%	-13%	?	-17%	?	?
CC(=O)c1sc(NC(=O)c2ccc(Cl)cc2)nc1C	-4%	-1.6%	-8%	·	-1%	·	14%
Cc1sc(NC(=O)c2ccco2)c(C(c2cccnc2)N2CCN(c3ccc(F)cc3)CC2)c1C (stereo unspecified)	-4%	-0.8%	-8%	-11%	1%	?	-19%
CSc1nc(Oc2ccc3ccccc3c2)c2sccc2n1	-17%	5.5%	-2%	-3%	7%	3%	?
COCCn1c(=NC(=O)CSC(C)=O)sc2cc(F)ccc21	2%	-0.7%	6%	-7%	13%	-13%	-2%
COc1ccccc1Oc1cc(C#N)c(C#N)cc1-n1nnc2ccccc21	-8%	-0.2%	-6%	-5%	-2%	-13%	-13%
Cc1cccc(C)c1NC(=O)CSc1nc(COc2ccccc2)nc2ccccc12	-5%	7.4%	13%	-18%	3%	7%	0%
CCc1c(C)sc(NC(=O)c2cccs2)c1C(=O)OC(C)C	-1%	-6.0%	-2%	-1%	6%	?	-19%
CC(c1cccs1)N(Cc1ccco1)C(=O)Nc1ccc(Cl)c(Cl)c1 (stereo unspecified)	0%	-0.2%	4%	-4%	3%	?	-28%
CCOC(=O)c1ccccc1NC(=O)C1COc2ccccc2O1 (stereo unspecified)	-7%	-5.5%	-3%	1%	-5%	-4%	-13%
CCC1=C(OC(=O)c2ccccc2)C(C)(C)C(c2ccccc2)OC1=O (stereo unspecified)	-5%	-1.0%	-5%	-2%	2%	-6%	-19%
COc1ccc(F)cc1C(=O)C1CCCN(Cc2cccn2-c2cccnc2)C1 (stereo unspecified)	-2%	-1.0%	19%	-10%	4%	5%	-15%
Cc1sc(NC(=O)c2ccco2)c(C(c2cccnc2)N2CCN(CCO)CC2)c1C (stereo unspecified)	9%	0.0%	-9%	-5%	5%	-3%	-7%
CCCOC(=O)c1cccc(NC(=O)C(C)(C)C)c1	-14%	0.0%	2%	2%	2%	?	-2%
CC(C)c1nc(SCc2c(F)cccc2Cl)c2c(=O)n(C)c(=O)n(C)c2n1	-11%	0.0%	-16%	-3%	-2%	1%	-8%
CCOC(=O)Cn1c(C)nc2ccccc21	-3%	0.7%	-12%	-6%	0%	-1%	1%
CCOc1ccccc1C(=O)Nc1cccc(-c2nnc(-c3ccccc3)o2)c1	-18%	-0.1%	1%	3%	4%	?	-17%
O=C(NCc1ccccc1)c1ccc(C(=O)N(C2CCCCC2)C2CCCCC2)cc1	-5%	0.7%	-3%	-10%	-1%	10%	-11%
COc1ccc(CCN2CC(O)=C(c3nc4ccccc4c(=O)[nH]3)C2=N)cc1OC	3%	2.9%	2%	1%	11%	?	-2%
O=c1c(Cl)c(NS(=O)(=O)c2ccccc2)cnn1-c1ccccc1	3%	0.1%	1%	·	5%	·	2%
Cc1nn(Cc2ccc(C(=O)Nc3ccc(C(=O)OC(C)C)cc3)o2)c(C)c1Cl	-2%	11%	0%	-14%	6%	?	-24%
COc1ccccc1NC(=O)C1CCN(c2ncccn2)CC1	-2%	-2.2%	2%	-5%	8%	-8%	-6%
CCc1c(C#N)c(SCc2c(C)noc2C)nc2c1C(=O)CC(C)(C)C2	-3%	-6.2%	0%	-13%	-1%	?	-3%
O=C(CCN1CCCC1)c1cccs1	0%	1.1%	4%	·	-3%	·	-10%
COc1nnc(-c2ccc(N3CCOCC3)c(NC(=O)c3ccc(C)cc3)c2)c2ccccc12	-5%	?	-12%	-4%	-1%	?	7%
N#CC(c1cccc(C(F)(F)F)c1)(c1ncc(C(F)(F)F)cc1Cl)N1CCOCC1 (stereo unspecified)	-18%	-1.1%	4%	3%	5%	2%	-17%
Fc1ccc(-c2ccc(-c3nn4c(-c5ccco5)nnc4s3)o2)cc1	-16%	0.9%	7%	-10%	8%	?	-13%
COc1ccc(C(=O)N2CCC(n3c(C)nc4cc(F)ccc43)CC2)cc1OC	-2%	-0.1%	4%	-8%	3%	1%	-4%
COC(=O)C1=C(C)N=c2s/c(=C/c3cccs3)c(=O)n2C1c1ccc(F)cc1 (stereo unspecified)	-15%	2.3%	-1%	5%	-7%	2%	-19%
OC1CN=C2Sc3ccccc3N2C1 (stereo unspecified)	-11%	0.0%	-28%	2%	-6%	3%	5%
O=S(=O)(c1ccccc1Cl)N1CCC(O)(c2ccc3c(c2)OCO3)CC1	-11%	0.0%	-2%	?	0%	-9%	-14%
CCn1cc(C(=O)O)c(=O)c2cnc(N3CCN(C(=S)Nc4ccccc4Cl)CC3)nc21	-2%	1.0%	8%	·	-5%	·	3%
CCOC(=O)Cn1c(=O)n(CC(=O)OCC)c2ccccc21	-10%	0.9%	-6%	0%	3%	?	11%
O=C(COC(=O)c1ccccc1C(=O)c1ccccc1)c1ccco1	-4%	-3.4%	-16%	0%	1%	?	-7%
CCCOc1ccc(C(=O)C(c2ccccc2)N2CCOCC2)cc1 (stereo unspecified)	12%	0.0%	-3%	-7%	4%	13µM*	8%

Exported with two lines to a compound: part of the list above
Results follow in this order: aGlu spleen mod, Epigenetic derep, GAA glycogen, GAA inhib, GLA spleen mod, ALDH1A1 inh, Tau fluor counter
- CCc1c(C#N)c(SCc2c(C)noc2C)nc2c1C(=O)CC(C)(C)C2
  -3%, -6.2%, 0%, -13%, -1%, ?, -3%
- O=C(CCN1CCCC1)c1cccs1
  0%, 1.1%, 4%, ·, -3%, ·, -10%
- COc1nnc(-c2ccc(N3CCOCC3)c(NC(=O)c3ccc(C)cc3)c2)c2ccccc12
  -5%, ?, -12%, -4%, -1%, ?, 7%
- N#CC(c1cccc(C(F)(F)F)c1)(c1ncc(C(F)(F)F)cc1Cl)N1CCOCC1 (stereo unspecified)
  -18%, -1.1%, 4%, 3%, 5%, 2%, -17%
- Fc1ccc(-c2ccc(-c3nn4c(-c5ccco5)nnc4s3)o2)cc1
  -16%, 0.9%, 7%, -10%, 8%, ?, -13%
- COc1ccc(C(=O)N2CCC(n3c(C)nc4cc(F)ccc43)CC2)cc1OC
  -2%, -0.1%, 4%, -8%, 3%, 1%, -4%
- COC(=O)C1=C(C)N=c2s/c(=C/c3cccs3)c(=O)n2C1c1ccc(F)cc1 (stereo unspecified)
  -15%, 2.3%, -1%, 5%, -7%, 2%, -19%
- OC1CN=C2Sc3ccccc3N2C1 (stereo unspecified)
  -11%, 0.0%, -28%, 2%, -6%, 3%, 5%
- O=S(=O)(c1ccccc1Cl)N1CCC(O)(c2ccc3c(c2)OCO3)CC1
  -11%, 0.0%, -2%, ?, 0%, -9%, -14%
- CCn1cc(C(=O)O)c(=O)c2cnc(N3CCN(C(=S)Nc4ccccc4Cl)CC3)nc21
  -2%, 1.0%, 8%, ·, -5%, ·, 3%
- CCOC(=O)Cn1c(=O)n(CC(=O)OCC)c2ccccc21
  -10%, 0.9%, -6%, 0%, 3%, ?, 11%
- O=C(COC(=O)c1ccccc1C(=O)c1ccccc1)c1ccco1
  -4%, -3.4%, -16%, 0%, 1%, ?, -7%

The listing continues:
SMILES	aGlu spleen mod	Epigenetic derep	GAA glycogen	GAA inhib	GLA spleen mod	ALDH1A1 inh	Tau fluor counter
CCn1c(=N)c(C(=O)OC)cc2c(=O)n3ccccc3nc21	?	0.7%	-1%	?	?	?	4%
O=C1C(CCC(O)c2ccc(F)cc2)C(c2ccc(O)cc2)N1c1ccc(F)cc1 (stereo unspecified)	-16%	-0.3%	·	·	-5%	11%	-15%
Cc1cccc(C(=O)N2c3ccccc3C(=O)OC2c2ccc3c(c2)OCO3)c1 (stereo unspecified)	-7%	6.4%	1%	-5%	-2%	?	-15%
CCOc1ccc(-c2cc(C(=O)O)c3ccccc3n2)c(OCC)c1	-8%	-2.8%	-2%	0%	0%	-13%	-2%
CCOC(=O)c1ccc(S(=O)(=O)n2c(CN3CCCCC3)nc3ccccc32)cc1	-24%	0.0%	1%	-1%	0%	-7%	-12%
Cc1cc(=O)n(CCC(=O)O)c2ccccc12	-6%	-7.1%	-6%	2%	-7%	-9%	8%
Cc1nn(Cc2ccc(C(=O)N3c4ccc(F)cc4CCC3C)o2)c(C)c1Br (stereo unspecified)	-3%	-1.0%	-10%	?	-1%	1%	-9%

Some of the compounds tested, so the mix of outcomes need not match the whole.
